Bioassay records from PubChem.
VACV Venus inh = qHTS for Stage-Specific Inhibitors of Vaccinia Orthopoxvirus: Venus Reporter Primary qHTS; Vaccinia virus Venus reporter expression, fluorescence; Potency, µM (highest dose often 36.5 µM), inactives show at the highest dose activity change, negative = inhibition, usual class: inhibitors; 0.46% of 330,000 active; AID 720580, 2013; active means well fitted inhibition curve with a large enough effect; inconclusive means small, poorly fitted or top-dose-only effect; inactive means no such curve, though single readings can be large or run the other way; tested in A549 cells; note: nearly all actives have a fitted effect of over 30% in size; inactives centre near -10
Vaccinia mCherry = qHTS for Stage-Specific Inhibitors of Vaccinia Orthopoxvirus: mCherry Reporter Primary qHTS; Potency, µM (doses to about 36.5 µM), for the others: at the highest dose activity change, negative = inhibition, usual class: inhibitors; 0.63% of 310,000 active; Vaccinia virus mCherry reporter infection, fluorescence; about a quarter of the inactives have no number; active = well fitted inhibition curve with a large enough effect; inconclusive = small, poorly fitted or top-dose-only effect; inactive = no such curve, though single readings can be large or run the other way; tested in A549 cells; note: nearly all actives have a fitted effect of over 35% in size; inactives centre near -10
Starred values were filed as active, the others as inactive; i = inactive; ? = inconclusive; nt = no result given; & = joins results of further samples. % is set by controls: 0 for no effect and ±100 for the full control effect; potency is the fitted concentration of half-maximal effect.

Below each SMILES – VACV Venus inh, Vaccinia mCherry
> CCn1c(/C=N/c2nc3ccccc3n2C)nc2ccccc21
→ 6%, -5%
> Cc1c(CCC(=O)NCC(=O)NCC(=O)O)c(=O)oc2cc3oc4c(c3cc12)CCCC4
→ -5%, 0%
> N#CC1=C(SCC(=O)Nc2cccc3cccnc23)NC(=O)C(C#N)C12CCCCC2 (stereo not given)
→ -1%, -4%
> O=C(Nc1ccccc1)C1=C[C@H](C2CC2)C[C@H](OCCCCO)O1
→ -2%, 7%
> CCOC(=O)C1CCCN(C(=O)c2cc3ccc(OC)cc3[nH]2)C1 (stereo not given)
→ -6%, -4%
> COc1ccc(NC(=O)c2nc[nH]c2C(=O)NCC(=O)OC(C)(C)C)cc1
→ ?, -3%
> CC(=O)Nc1nnc(SCC(=O)Nc2nc(C)cs2)s1
→ -13%, i
> CCOc1ccc(S(=O)(=O)Nc2ccccc2C(=O)N/N=C/c2c(OC)ccc3ccccc23)cc1
→ -15%, i
> CC(=O)c1ccc(OCc2cc(C(=O)N3CCN(C4CCCC4)C(=O)C3)no2)cc1
→ -20%, -5%
> CCCC(C(=O)NNC(=O)c1ccncc1)c1ccccc1 (stereo not given)
→ -1%, i
> CCOC(=O)C1=CCC(c2cccc(Cl)c2)N(S(=O)(=O)c2ccc(C)cc2)C1 (stereo not given)
→ 10%, 6%
> O=C(Nc1ccc(Cl)cc1F)C1CCN(S(=O)(=O)c2cccnc2)CC1
→ -20%, nt
> Cc1ccccc1NC(=O)c1ccc2nc(N3CCOCC3)sc2c1
→ -9%, 13%
> Cc1cc(NC(=O)CSc2nnc(-c3ccncc3)n2-c2ccc(F)cc2)no1
→ -7%, -13%
> CC(C)c1ccc2c(c1)-c1ccccc1S(=O)(=O)N2CC(=O)N1CCCCC1
→ -2%, -6%
> CCCn1c(N)c(C(=O)CSc2nnc(-c3cccs3)n2C2CC2)c(=O)[nH]c1=O
→ -16%, -7%
> C=Cn1cc(CNC[C@H]2O[C@@H](n3cnc4c(=O)[nH]c(N)nc43)[C@H](O)[C@@H]2O)c(C)n1
→ -1%, 20%
> CC(C)(C)NC(=O)C1(C)CCC(=O)N1CC(F)(F)F (stereo not given)
→ -7%, 5%
> O=C(/C=C/c1cccc2ccccc12)c1ccncc1
→ ?, ?
> CN(C)c1ccc(C(CNC(=O)c2ccc(C(C)(C)C)cc2)N2CCOCC2)cc1 (stereo not given)
→ -2%, -12%
> CO/N=C(/CNC(=O)c1ccc(F)cc1)c1ccc(Cl)cc1
→ -4%, -5%
> COc1ccc(-c2cc3ncc(C(C)=O)c(C)n3n2)cc1
→ -8%, i
> CCOc1ccc(N(C)S(=O)(=O)c2ccc3c(c2)C(C)(C)C(=O)N3C)cc1
→ 3%, -10%
> Cc1ccccc1/C(N)=N/OC(=O)c1cccs1
→ 0%, -14%
> CCOc1ccc(C(=O)NC(C(=O)N2CCC2)C(C)C)cc1 (stereo not given)
→ -6%, -11%
> CC(O)(c1ccccc1)c1ccc2ccccc2n1 (stereo not given)
→ -7%, -14%
> Cc1cc(C=C(C#N)C#N)ccc1N1CCCC1
→ 9%, i
> COc1ccccc1NC(=O)CCCOc1cc(=O)n(C)c2ccccc12
→ -1%, i
> CCCNC(=O)c1ccc(CNc2c(N3CCC(C(=O)OCC)CC3)c(=O)c2=O)cc1
→ -26%, nt
> Cc1ccc2c(CC(=O)Nc3sccc3C(N)=O)coc2c1
→ ?, -23%
> Cc1nc([N+](=O)[O-])cn1CC(=O)NCCCO
→ -9%, -10%
> CN(C(=O)NC1CCCCC1)[C@H]1C[C@H]2c3[nH]c4ccccc4c3CCN2C(=O)[C@H]1CO
→ -21%, i
> CCOc1ccc(NC(=O)Cn2nnc(C(=O)Nc3ccc(OCC)cc3)c2N)cc1
→ 12%, 4%
> CCCCC1Cc2[nH][nH]c(=O)c2C(c2ccc(F)cc2)O1 (stereo not given)
→ -8%, -23%
> COC(=O)Cc1c(O)ccn(C2CC2)c1=O
→ -3%, -14%
> O=C(Nc1cccc2cccnc12)c1csc(COCCO)n1
→ -10%, -16%
> CC(CCc1ccccn1)C(=O)C(C)CCc1ccccn1 (stereo not given)
→ -15%, i
> CCc1nn2c(=O)cc(COC(=O)C(c3ccccc3)c3ccccc3)nc2s1
→ -3%, 1%
> Oc1ccccc1/C=N/N1CCN(c2ccccn2)CC1
→ 7%, ?
> O=S(=O)(c1ccccc1)N1CCC(n2nnc3cc(F)ccc32)CC1
→ -13%, -3%
> Cc1cc(/N=C/C=C2/N(C)c3ccccc3C2(C)C)n(CCC#N)n1
→ 0%, -13%
> CSc1nn2c(C)c(C)c(C)nc2c1C#N
→ -7%, 5%
> N#Cc1sc(C(N)=O)c(-c2ccccc2)c1-c1ccccc1
→ -7%, i
> CC1CC2(O)c3no[n+]([O-])c3CCC2N1O (stereo not given)
→ -6%, i
> COC(=O)c1ccc(C(=O)Nc2ccc(-c3nc4cc(NC(=O)c5ccc(C(=O)OC)cc5)ccc4o3)cc2)cc1
→ -3%, -7%
> CCNc1nc(NCC)nc(C(=O)OCCO)n1
→ -8%, i
> CCn1c(=N)c(C(=O)NCc2ccccc2)cc2c(=O)n3cc(C)ccc3nc21
→ 1%, 9%
> Oc1c(C=Nc2ccc(Cl)cn2)sc2ccccc12
→ -9%, -29%
> COCCNC(=O)[C@H]1C[C@@H]1[C@H](NP(=O)(c1ccccc1)c1ccccc1)c1ccccc1
→ -5%, -12%
> CSc1ccc(CCNC(=O)CN2C(=O)c3cccnc3Oc3ccc(C)cc32)cc1
→ -14%&-18%, -8%
> COc1ccc2c(c1)C(c1ccc(Cl)cc1)NC(=O)C2 (stereo not given)
→ -2%, -9%
> Cn1cccc1-c1nc2ccc(NC(=O)c3ccco3)cc2[nH]1
→ -7%, -9%
> CCOC(=O)c1c(NC(=O)c2nn(C)cc2[N+](=O)[O-])sc(C)c1C
→ 0%, -20%
> COc1ccc(C(=O)Nc2ccc3oc(-c4cccnc4)nc3c2)cc1
→ 0%, -22%
> Cc1cc(NC(=O)c2ccccc2Oc2ccccc2)no1
→ 1%, -3%
> O=C1c2ccccc2C(Nc2ccc(S(=O)(=O)N3CCCCCC3)cc2)N1Cc1ccco1 (stereo not given)
→ -5%, 7%
> CC(C)(C)CN1CCNC(=O)C1CC(=O)NCCN1CCCc2ccccc21 (stereo not given)
→ -9%, -12%
> CCN(CC(=O)Nc1cccc(S(=O)(=O)N2CCCCC2)c1)Cc1ccccc1
→ 1%, -33%
> O=C(NCc1ccccc1)c1cc(C2COCCN2S(=O)(=O)c2cccs2)on1 (stereo not given)
→ -6%, 8%
> COc1ccccc1OCCC(=O)OCC(=O)NCc1ccccc1
→ -5%, -21%

Continuation.
canonical_smiles | VACV Venus inh | Vaccinia mCherry
COCCCNC(=O)c1ccc(CS(=O)(=O)c2ccccc2C)o1 | -5% | -4%
COCCN1Cc2cccc(C(=O)NCc3ccc4c(c3)OCO4)c2C1=O | -1% | -13%
CCn1cc(/C=C/C(=O)Nc2ccn(Cc3c(F)c(F)cc(F)c3F)n2)cn1 | -23% | -16%
CCCCCNC(=O)C(CCc1ccccc1)n1c(=O)c(-c2cc3ccccc3[nH]2)nc2ccccc21 (stereo not given) | -7% | ?
CN(c1cc(=O)n2ccccc2n1)C1CCCCC1 | -9% | nt
Cn1c(=O)cc(NCc2ccccc2)[nH]c1=O | ? | -1%
CCOC(=O)c1c(C)nn(-c2ccc(NC(=O)c3c(C)noc3C)cc2)c1C | -25% | i
COc1cccc(C(=O)CC(C(=O)O)c2ccc(F)cc2)c1 (stereo not given) | -9% | -2%
COc1cc2cc(C)c3nnc(SCC(=O)Nc4cc(C)on4)n3c2cc1OC | 3% | -20%
O=C(NNC(=S)Nc1ccccc1)c1ccncc1 | 3% | -15%
CC(=O)N=C1SC2CS(=O)(=O)CC2N1Cc1ccc(C)cc1 (stereo not given) | 4% | -4%
CCN(CC)S(=O)(=O)c1ccc(OC)c(NC(=O)c2cc(=O)[nH]c3ccccc23)c1 | -21% | -12%
CCc1c(-c2ccccc2F)ncn1Cc1cccc(-c2ccccc2)c1 | ? | ?
CCOC(=O)NC(=O)c1cn(N(C)c2ncc(C(F)(F)F)cc2Cl)c(=O)[nH]c1=O | -8% | i
COc1ccc(CCNC(=O)CSc2nc3c(sc(=S)n3-c3ccccc3)c(=O)[nH]2)cc1OC | -11% | i
COc1cc(NC(=O)Cn2c(=O)n(Cc3ccccc3)c(=O)c3oc4ccccc4c32)cc(OC)c1 | -8% | -3%
Cc1cc2nc(-c3ccc(F)cc3)c(Cc3ccccc3)n2c(C)c1Br | 6% | 5%
CN(C)/C=C/c1oc2ccc(O)cc2c1[N+](=O)[O-] | -8% | -9%
CCCn1c(=O)n(C)c(=O)c2c(SCC(=O)NCC(c3ccccc3)N(C)C)nc(CC(C)C)nc21 (stereo not given) | -19% | -28%
COc1cccc(O)c1CN1CCC(C(=O)Nc2ccc(Oc3cccnc3)cc2)CC1 | -17% | i
O=C(COC(=O)Cc1ccccc1F)Nc1cc(S(=O)(=O)N2CCOCC2)ccc1N1CCCC1 | -13% | -7%
Cc1cc([N+](=O)[O-])nn1CCCC(=O)Nc1ccc2c(c1)OCO2 | -2% | -16%
CC(C)(O)/C=C/C(=O)[C@](C)(O)C1[C@H](O)C[C@@]2(C)C3CC=C4C(C[C@H](O)[C@@H](O)C4(C)C)[C@]3(C)C(=O)C[C@]12C (stereo not given in full) | 1.6µM* | ?
COc1ccc(Cn2c(CCC(=O)Nc3ccc(C)cc3C)nc3cccnc32)cc1 | -13% | -5%
O=C(O)/C=C/C(=O)NCc1ccccn1 | -1% | 6%
Cc1nc(NCc2ccco2)nc2c1C(=O)CC(C)C2 (stereo not given) | 1% | nt
Nc1nc2ccccc2n1Cc1ccc(Cl)c(Cl)c1 | -30% | ?
COc1ccc(C(c2nnnn2C2CCCC2)N2CCN(C/C=C/c3ccccc3)CC2)cc1 (stereo not given) | -3% | i
CCOC(=O)NC(=O)/C(C=Nc1ccc(Cl)cc1)=C(\C)O | -5% | -7%
COc1cc(C(=O)OCc2nc3ccsc3c(=O)[nH]2)c([N+](=O)[O-])cc1OC | -15% | -18%
CC(=O)c1c(C)[nH]c(C(=O)OCC(=O)N2c3ccccc3NC(=O)C2(C)C)c1C | -20% | -26%
Cc1noc(C)c1C(=O)N1CCN(S(=O)(=O)c2cccs2)CC1 | 2% | -10%
O=C(COC(=O)c1ccc(O)cc1)Nc1ccc(OC(F)F)cc1 | -9% | i
C/C(=C\C(=O)OCC(=O)NCc1ccccc1)C(=O)OCC(=O)NCc1ccccc1 | -5% | -13%
CC(C(=O)NCCc1ccc(F)cc1)N1CCN(Cc2ccccc2)CC1 (stereo not given) | -13% | -13%
Cc1ccc(-c2nc(NC(=O)CSc3nnnn3-c3ccccc3)ns2)cc1 | -6% | nt
O=S(=O)(Oc1ccccc1/C=N/n1cnnc1)c1ccccc1 | 3% | i
COC(=O)c1cc2c(ccn2-c2ccc(F)cc2)n1Cc1ccc(OC)cc1 | -9% | -14%
COc1cc(NC(=S)N2CCN(c3ccccn3)CC2)c(OC)cc1Cl | -21% | -3%
Cc1ccc2c(c1)C(c1ccc(F)cc1)N(C(=O)c1cc3ccccc3oc1=O)CC(=O)N2 (stereo not given) | -5% | i
COc1ccc(Cc2n[nH]c(=S)n2-c2ccc3c(c2)OCCO3)cc1 | -3% | i
CCCN(C(=O)c1cc2c(Cl)nc3ccccc3c2s1)c1cccc(C)c1 | -12% | 14%
CCCN(CC1CC1)CC(O)c1ccccc1 (stereo not given) | 6% | -9%
COC(=O)CN1C(=O)CC(C)(C)Sc2ccccc21 | -4% | -15%
O=C1c2cccc3cccc(c23)C(=O)C1(O)O | -6% | -17%
COc1ccc(Nc2cc3n(c(=O)n2)CCc2cc(OC)c(OC)cc2-3)cc1 | -20% | i
Cc1ccc(-c2nnc(Nc3ccccc3O)c3ccccc23)cc1 | ? | ?
COc1ccc(OCc2nnc(SCC(N)=O)n2N)cc1 | -8% | -13%
Cc1ccc2nc(-c3ccccn3)c(Nc3ccc(F)cc3)n2c1 | ? | ?
CCN1C(=O)CC(CC(=O)N2CCC(c3nc4ccc(F)cc4[nH]3)CC2)(c2ccccc2C)C1=O (stereo not given) | -5% | -29%
O=[N+]([O-])c1ccc(Oc2ccc(C(F)(F)F)cn2)cc1 | 8% | i

Four entries from above, field by field:
COc1cc(C(=O)OCc2nc3ccsc3c(=O)[nH]2)c([N+](=O)[O-])cc1OC
  VACV Venus inh: -15% | Vaccinia mCherry: -18%

CC(=O)c1c(C)[nH]c(C(=O)OCC(=O)N2c3ccccc3NC(=O)C2(C)C)c1C
  VACV Venus inh: -20% | Vaccinia mCherry: -26%

Cc1noc(C)c1C(=O)N1CCN(S(=O)(=O)c2cccs2)CC1
  VACV Venus inh: 2% | Vaccinia mCherry: -10%

O=C(COC(=O)c1ccc(O)cc1)Nc1ccc(OC(F)F)cc1
  VACV Venus inh: -9% | Vaccinia mCherry: i

Given field by field: entries from further up.
COc1ccc(C(c2nnnn2C2CCCC2)N2CCN(C/C=C/c3ccccc3)CC2)cc1 (stereo not given)
  VACV Venus inh: -3% | Vaccinia mCherry: i

CCOC(=O)NC(=O)/C(C=Nc1ccc(Cl)cc1)=C(\C)O
  VACV Venus inh: -5% | Vaccinia mCherry: -7%

COc1cc(C(=O)OCc2nc3ccsc3c(=O)[nH]2)c([N+](=O)[O-])cc1OC
  VACV Venus inh: -15% | Vaccinia mCherry: -18%

CC(=O)c1c(C)[nH]c(C(=O)OCC(=O)N2c3ccccc3NC(=O)C2(C)C)c1C
  VACV Venus inh: -20% | Vaccinia mCherry: -26%
